High-throughput results (PubChem BioAssay)
PrP UTR inh: suppresses PrP 5' UTR mRNA reporter expression | cell-based PrP 5' UTR mRNA reporter, plate reader | inhibition, % (no concentration beside the values) | 0.35% of 340,000 active | AID 488862;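 active means every replicate at 50% or more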;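 further: 0 = median of the neutral control wells; tested in H4 reporter cells; numbers are from one replicate; inactives centre near -14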
BJeLR viability: BJeLR cell viability loss; inhibition, % (test concentration not listed); BJeLR (HRASV12) viability, CellTiter-Glo ATP luminescence, 48 h; reference of the scale not given here; AID 1554; 0.17% of 300,000 active;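 active means replicate mean above 50%; inconclusive means above 50% but judged a plate artefact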;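 further: 50 nL library stock added to about 25 µL; numbers are from one replicate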
Sa RN4220 lethal: kills Staphylococcus aureus RN4220; S. aureus RN4220 growth, OD600, 16 h; inhibition, % (no concentration beside the values); 0.33% of 330,000 active; AID 1259311;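 active means z-score of -3 or lower and OD600 up to 0.18 on both plates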;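 further: plate controls were untreated cells for no effect and reference antibiotic for full effect; stock transfer was 100 nL into about 80 µL; one replicate is shown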
ugtP null kill: kills S. aureus RN4220 lacking UgtP | S. aureus RN4220 ugtP deletion, OD600 growth, 16 h; some inactives read as strong as hits | growth inhibition, % (no concentration beside the values) | 0.54% of 330,000 active;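 active means z-score under -3 and OD600 up to 0.15 on both plates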;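 further: plate controls were untreated wells for no effect and antibiotic for full effect; wells of about 80 µL received 100 nL stock; the first replicate is given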
Bead autofluor: counter-screen for toxin protease inhibitors: compound fluorescence. compound autofluorescence counterscreen, microsphere flow cytometry; active compounds read high. fluorescence intensity (test concentration not listed). 3.1% of 360,000 active;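 active means at least 3 SD above the mean of all compounds, about 16000 in these data; inconclusive means too few beads counted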;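 further: 100 nL of 1 mM stock went into each well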
Mtb hypoxia rep: Mtb hypoxia fluorescent reporter inhibition; fluorescence inhibition, % (no concentration beside the values); 0.1% of 300,000 active; M. tuberculosis hypoxia-regulated fluorescent reporter, fluorescence;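 active means 35 to 45% if threefold the growth effect, above 45% if 1.5-fold the growth effect; inactive means the rest, general growth blockers included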;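 further: wells of about 50 µL received 100 nL stock; 0% = vehicle wells and 100% = reference inhibitor wells; whole bacteria with a GFP reporter of the hypoxia response; strong numbers were not always called active; many hits fall short of the cut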
Mtb hypoxia rep growth: recorded beside Mtb hypoxia rep, whose call it bears; growth inhibition, %; measured here: M. tuberculosis growth (absorbance);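 0% = vehicle and 100% = reference antibiotic; read after six days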
An asterisk follows results filed as active.

How did Oc1ccc(/C=N/Nc2ncc(Cl)cc2Cl)cc1 do in these assays?
PrP UTR inh: -31.6; BJeLR viability: -4.0; Bead autofluor: 4032

How did COc1ccc(-c2oc3ccc(-c4ccc(OC)nc4)cc3c2-c2ccc(OC)cc2)cc1 do in these assays?
PrP UTR inh: -16.0; BJeLR viability: 6.7; Sa RN4220 lethal: 4.3; ugtP null kill: 3.9; Bead autofluor: 4242; Mtb hypoxia rep: 8.9; Mtb hypoxia rep growth: 16.5

Results for c1ccc(-c2nc(NCc3cccnc3)c3oc4ccccc4c3n2)cc1 ?
PrP UTR inh: -12.3; BJeLR viability: -0.4; Sa RN4220 lethal: -2.1; ugtP null kill: 7.2; Bead autofluor: 4418; Mtb hypoxia rep: 1.7; Mtb hypoxia rep growth: 12.0

Results for CCNC(=O)C1Cc2ccccc2CN1S(=O)(=O)c1ccc(F)cc1 (centres undefined) ?
PrP UTR inh: -1.0; BJeLR viability: 14.3; Sa RN4220 lethal: -2.8; ugtP null kill: -5.7; Bead autofluor: 4265; Mtb hypoxia rep: -12.6; Mtb hypoxia rep growth: -3.5

How did CC(C)C(NC(=O)COc1ccccc1)C(=O)O (centres undefined) do in these assays?
PrP UTR inh: -15.5; BJeLR viability: 6.1; Sa RN4220 lethal: 0.9; ugtP null kill: 5.7; Bead autofluor: 19854*; Mtb hypoxia rep: 5.5; Mtb hypoxia rep growth: 4.6

Results for Cc1ccc(SCCSc2nc(C)cc(=O)[nH]2)cc1 ?
PrP UTR inh: 3.2; BJeLR viability: -8.0; Sa RN4220 lethal: 9.7; ugtP null kill: 2.9; Bead autofluor: 4311; Mtb hypoxia rep: 19.1; Mtb hypoxia rep growth: 9.0

What do the screens show for `CCC(C)(C)NC(=O)C(c1ccc(OC)cc1)N(C(=O)CCC(=O)Nc1cc(C)on1)c1cccc(F)c1` (centres undefined)?
PrP UTR inh: 0.7; BJeLR viability: -5.8; Sa RN4220 lethal: 2.9; ugtP null kill: -0.6; Bead autofluor: 3168; Mtb hypoxia rep: 4.7; Mtb hypoxia rep growth: -0.4

Results for COc1ccc(S(=O)(=O)N2CCC3(CC2)CC(=O)c2ccccc2O3)cc1C ?
PrP UTR inh: -14.4; BJeLR viability: 7.7; Sa RN4220 lethal: 6.4; ugtP null kill: -2.8; Bead autofluor: 6501; Mtb hypoxia rep: 8.9; Mtb hypoxia rep growth: 1.0

What do the screens show for `COC(=O)Cn1nc(-c2ccc(C)c(S(=O)(=O)N(C)C)c2)c2ccccc2c1=O`?
PrP UTR inh: 0.8; BJeLR viability: -6.6; Sa RN4220 lethal: 5.3; ugtP null kill: 6.9; Bead autofluor: 7082; Mtb hypoxia rep: 4.5; Mtb hypoxia rep growth: 0.3

Results for COC(=O)CCC(=O)N1CCOCCOCCN(C(=O)CCC(=O)OC)CCOCCOCC1 ?
PrP UTR inh: -1.4; BJeLR viability: 0.5; Sa RN4220 lethal: -3.8; ugtP null kill: -4.5; Bead autofluor: 3022; Mtb hypoxia rep: 3.0; Mtb hypoxia rep growth: 8.0

How did CCNC(=O)N(C(=O)NCC)n1c(C)nnc1C do in these assays?
PrP UTR inh: -17.8; BJeLR viability: 0.0; Sa RN4220 lethal: 6.5; ugtP null kill: 2.9; Bead autofluor: 2879; Mtb hypoxia rep: 6.0; Mtb hypoxia rep growth: 6.7

Results for COc1ccc2c(c1)OC/C(=C/c1cccs1)C2=O ?
PrP UTR inh: -109.5; BJeLR viability: -1.9; Sa RN4220 lethal: 1.4; ugtP null kill: 4.5; Bead autofluor: 2698; Mtb hypoxia rep: 1.0; Mtb hypoxia rep growth: -10.8

What do the screens show for `Cc1cccc(OCC(=O)N2CCN(Cc3ccncc3)CC2)c1`?
PrP UTR inh: -16.8; BJeLR viability: 1.7; Sa RN4220 lethal: 17.5; ugtP null kill: 5.1; Bead autofluor: 2994; Mtb hypoxia rep: -5.7; Mtb hypoxia rep growth: -1.4

How did CC(C(=O)OCC(=O)N(C)C1(C#N)CCCCC1)N1C(=O)c2ccccc2C1=O (centres undefined) do in these assays?
PrP UTR inh: -24.5; Sa RN4220 lethal: 6.4; ugtP null kill: 9.5; Bead autofluor: 8877; Mtb hypoxia rep: 10.1; Mtb hypoxia rep growth: 6.7

What do the screens show for `CN(C)Cc1c(C(=O)N/N=C/C=C/c2ccccc2)nnn1-c1nonc1N`?
PrP UTR inh: -14.1; BJeLR viability: -3.7; Bead autofluor: 6101

How did c1ccc(N2CCN(c3ccccc3)C2c2cccnc2)cc1 do in these assays?
PrP UTR inh: -8.5; BJeLR viability: 1.2; Sa RN4220 lethal: 6.3; ugtP null kill: 6.1; Bead autofluor: 3494

What do the screens show for `N#Cc1cc2cc3c(cc2nc1N1CCCCC1)OCCO3`?
PrP UTR inh: -97.6; BJeLR viability: 8.6; Sa RN4220 lethal: 6.5; ugtP null kill: -13.2; Bead autofluor: 3837

How did CC(C)OCC(O)CN1CCN(C(c2ccccc2)c2ccccc2)CC1 (centres undefined) do in these assays?
PrP UTR inh: -12.6; BJeLR viability: -3.8; Sa RN4220 lethal: 1.0; ugtP null kill: 8.2; Bead autofluor: 2502; Mtb hypoxia rep: -0.4; Mtb hypoxia rep growth: 1.4

Results for COc1ccc(NC(=O)C2CCN(C(=O)NC3CCCCC3)CC2)c(OC)c1 ?
PrP UTR inh: -27.7; BJeLR viability: -3.9; Sa RN4220 lethal: -1.3; ugtP null kill: -1.2; Bead autofluor: 9220; Mtb hypoxia rep: 8.1; Mtb hypoxia rep growth: 9.4

How did COc1ccc2c(c1)CC(=O)NC=C2 do in these assays?
PrP UTR inh: -22.8; BJeLR viability: 20.3; Sa RN4220 lethal: 4.8; ugtP null kill: 4.4; Bead autofluor: 4380; Mtb hypoxia rep: 6.2; Mtb hypoxia rep growth: -4.5

Results for COc1cc(NC(=O)CN(c2cc(C)cc(C)c2)S(=O)(=O)c2c(C)noc2C)cc(OC)c1 ?
PrP UTR inh: -1.6; BJeLR viability: -12.4; Sa RN4220 lethal: 3.6; ugtP null kill: 2.4; Bead autofluor: 3899

Results for Cn1c(=O)n(CC(N)=O)c(=O)c2c1nc(Br)n2Cc1ccccc1 ?
PrP UTR inh: -20.1; BJeLR viability: -2.9; Sa RN4220 lethal: 3.0; ugtP null kill: 1.8; Bead autofluor: 3520; Mtb hypoxia rep: -0.5; Mtb hypoxia rep growth: -7.4

Results for CCOC(=O)CN1CC23C=CC(O2)C(C(=O)Nc2ccc(C(C)=O)cc2)C3C1=O (centres undefined) ?
PrP UTR inh: -18.6; BJeLR viability: -4.0; Sa RN4220 lethal: -8.4; ugtP null kill: 0.2; Bead autofluor: 5531; Mtb hypoxia rep: 4.5; Mtb hypoxia rep growth: 12.2

Results for Cc1cc(=O)[nH]c(SCC(=O)Nc2ccc(Br)cn2)n1 ?
PrP UTR inh: -10.1; BJeLR viability: -3.0; Sa RN4220 lethal: 9.8; ugtP null kill: -6.5; Bead autofluor: 5345; Mtb hypoxia rep: 5.0; Mtb hypoxia rep growth: 0.8

Results for Cc1cccn2c(=O)c3cc(C(=O)NC(C)C)c(=N)n(Cc4ccncc4)c3nc12 ?
PrP UTR inh: 1.8; BJeLR viability: -0.1; Bead autofluor: 2976

What do the screens show for `COc1cc(C(=O)N2CCc3ccccc32)ccc1OCc1c(C)noc1C`?
PrP UTR inh: 7.9; BJeLR viability: 7.4; Sa RN4220 lethal: 2.8; ugtP null kill: 12.7; Bead autofluor: 5616; Mtb hypoxia rep: 8.4; Mtb hypoxia rep growth: 4.0

What do the screens show for `O=C(CSc1nc2[nH]ncc2c(=O)[nH]1)Nc1ccc(Cl)cc1`?
PrP UTR inh: -12.1; BJeLR viability: 3.3; Sa RN4220 lethal: -0.7; ugtP null kill: 5.8; Bead autofluor: 5905; Mtb hypoxia rep: -1.5; Mtb hypoxia rep growth: 3.4

Results for O=[N+]([O-])c1ccc(Oc2ccc(S(=O)(=O)N3CCOCC3)cc2)cc1 ?
PrP UTR inh: -0.8; BJeLR viability: 2.6; Sa RN4220 lethal: 3.9; ugtP null kill: 10.9; Bead autofluor: 2944; Mtb hypoxia rep: 4.6; Mtb hypoxia rep growth: 0.2

What do the screens show for `COC(=O)c1cccc(Cn2c(Cl)c(C=NNC(=O)c3ccco3)sc2=O)c1`?
Sa RN4220 lethal: 1.4; ugtP null kill: -3.0; Mtb hypoxia rep: 8.1; Mtb hypoxia rep growth: 0.1

What do the screens show for `COC(=O)C1CCN(C(=O)c2cc(=O)[nH]c3ccccc23)CC1`?
PrP UTR inh: -23.6; BJeLR viability: -2.9; Sa RN4220 lethal: 2.8; ugtP null kill: 2.9; Bead autofluor: 4174; Mtb hypoxia rep: -7.7; Mtb hypoxia rep growth: -8.2

How did CSCCC(NS(=O)(=O)c1ccc2c(c1)OCCO2)C(=O)N(C)Cc1ccc(C)cc1 (centres undefined) do in these assays?
PrP UTR inh: -16.8; BJeLR viability: 11.2; Sa RN4220 lethal: -1.9; ugtP null kill: -6.4; Bead autofluor: 4931; Mtb hypoxia rep: -7.7; Mtb hypoxia rep growth: -1.9

Results for Cc1cc(C(F)(F)F)n2nc(C(=O)O)c(Cl)c2n1 ?
PrP UTR inh: -13.9; BJeLR viability: -7.9; Sa RN4220 lethal: -0.1; ugtP null kill: -3.6; Bead autofluor: 5637

How did S=C(NCc1ccco1)Nc1cccc(Cl)c1 do in these assays?
PrP UTR inh: -18.4; BJeLR viability: -16.7; Sa RN4220 lethal: 1.8; ugtP null kill: -20.6; Bead autofluor: 15617; Mtb hypoxia rep: 8.4; Mtb hypoxia rep growth: 12.6

How did CCOc1ccc(C(=O)Nc2cc(Cl)ccc2-n2cncn2)cc1OC do in these assays?
PrP UTR inh: -12.4; BJeLR viability: -17.9; Sa RN4220 lethal: 5.5; ugtP null kill: 5.5; Bead autofluor: inconclusive; Mtb hypoxia rep: -2.5; Mtb hypoxia rep growth: 0.0

What do the screens show for `Nc1nonc1-n1nnc(C(=O)N/N=C/c2cccc(Cl)c2)c1CN1CCCCCC1`?
PrP UTR inh: -13.1; BJeLR viability: 2.0; Bead autofluor: 5653

How did COC(=O)COc1ccc2cc(-c3ccc(OC)cc3)c(=O)oc2c1 do in these assays?
PrP UTR inh: 4.6; BJeLR viability: 15.7; Sa RN4220 lethal: -2.3; ugtP null kill: 2.1; Bead autofluor: 5147; Mtb hypoxia rep: 13.5; Mtb hypoxia rep growth: 11.8

Three structures from above, arranged by number of heavy atoms, lowest first:
How did S=C(NCc1ccco1)Nc1cccc(Cl)c1 do in these assays?
PrP UTR inh: -18.4; BJeLR viability: -16.7; Sa RN4220 lethal: 1.8; ugtP null kill: -20.6; Bead autofluor: 15617; Mtb hypoxia rep: 8.4; Mtb hypoxia rep growth: 12.6

Results for Cc1cc(C(F)(F)F)n2nc(C(=O)O)c(Cl)c2n1 ?
PrP UTR inh: -13.9; BJeLR viability: -7.9; Sa RN4220 lethal: -0.1; ugtP null kill: -3.6; Bead autofluor: 5637

How did CSCCC(NS(=O)(=O)c1ccc2c(c1)OCCO2)C(=O)N(C)Cc1ccc(C)cc1 (centres undefined) do in these assays?
PrP UTR inh: -16.8; BJeLR viability: 11.2; Sa RN4220 lethal: -1.9; ugtP null kill: -6.4; Bead autofluor: 4931; Mtb hypoxia rep: -7.7; Mtb hypoxia rep growth: -1.9

Other entries
How did COCCCNCCCCOc1ccc(OCc2ccccc2)cc1 do in these assays?
PrP UTR inh: -53.3; BJeLR viability: 6.9; Sa RN4220 lethal: -0.9; ugtP null kill: 21.3; Bead autofluor: 1967; Mtb hypoxia rep: 10.8; Mtb hypoxia rep growth: -3.3

Results for N#Cc1sc2nc(-c3cccs3)cc(-c3ccccc3)c2c1N ?
PrP UTR inh: -33.1; BJeLR viability: -6.3; Sa RN4220 lethal: 11.5; ugtP null kill: -27.4; Bead autofluor: 5933; Mtb hypoxia rep: 9.9; Mtb hypoxia rep growth: 6.5

Results for Cc1ccc(S(=O)(=O)N(Cc2cccc(Cl)c2)C(=O)N2CCN(C)CC2)cc1 ?
PrP UTR inh: -20.8; BJeLR viability: 9.3; Sa RN4220 lethal: -1.5; ugtP null kill: -0.4; Bead autofluor: 4352; Mtb hypoxia rep: -1.4; Mtb hypoxia rep growth: -3.0

How did O=[N+]([O-])c1ccc(-c2cn3nc(-c4ccccc4)c(-c4ccccc4)nc3n2)cc1 do in these assays?
BJeLR viability: -1.7; Sa RN4220 lethal: 4.4; ugtP null kill: 3.5; Mtb hypoxia rep: 5.4; Mtb hypoxia rep growth: 3.5
